Sfp PPTase inh: blocks B. subtilis Sfp PPTase activity | AID 1490 | hit rate 3.5% among 310,000 | Biochemical Sfp PPTase activity, qHTS | Q9F4F7 | Potency, µM, inactives show max response, negative = inhibition, hits mostly inhibitors; active = well fitted inhibition curve with a large enough effect; inconclusive = small, poorly fitted or top-dose-only effect, or another doubt; inactive = no such curve, though single readings can be large or run the other way;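 also: the enzyme is Sfp with the accession as filed and its product quenches rhodamine fluorescence; potency is read from the fitted curve at half-maximal effect; 0% = enzyme reaction without inhibitor and -100% = no enzyme wells; top concentration of the series not given in the record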
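Reaction rates are the 30-min fluorescence difference (ex 525, em 598 nm) in wells containing 15 nM Sfp, 5 uM rhodamine-CoA and 12.5 uM BHQ-2-YbbR at pH 7.6 with 10 mM MgCl2.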
D2 agonist: activates the human D2 dopamine receptor; DiscoveRx PathHunter D2 beta-arrestin, luminescence, 90 min; 100% = 57 uM dopamine signal; activation, % (no concentration beside the values); hit rate 0.084% among 360,000; in the data active = activation above about 40%; inconclusive = about 15% to 40%; inactive = below about 15%; also: compound concentration not given in the record; the text of the record calls up to 30% inactive
Target sequence (P14416 whole entry, looked up): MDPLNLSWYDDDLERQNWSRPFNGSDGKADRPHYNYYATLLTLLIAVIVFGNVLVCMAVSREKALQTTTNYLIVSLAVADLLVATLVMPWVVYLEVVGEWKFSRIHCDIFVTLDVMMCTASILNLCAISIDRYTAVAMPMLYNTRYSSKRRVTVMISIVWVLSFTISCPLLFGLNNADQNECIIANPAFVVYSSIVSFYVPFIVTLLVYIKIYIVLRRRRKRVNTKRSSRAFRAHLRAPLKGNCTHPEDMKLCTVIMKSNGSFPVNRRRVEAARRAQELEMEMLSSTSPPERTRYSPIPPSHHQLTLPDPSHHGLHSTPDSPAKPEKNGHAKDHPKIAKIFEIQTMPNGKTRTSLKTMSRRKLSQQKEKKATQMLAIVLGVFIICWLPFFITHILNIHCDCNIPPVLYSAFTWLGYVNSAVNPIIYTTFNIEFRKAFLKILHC
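Agonist mode: compounds alone added to overnight-plated D2 PathHunter cells for 90 min at 37 C, with 57 uM final dopamine (EC100) defining full response. Beta-arrestin recruitment detected by chemiluminescent reagent, read after 1 h at ambient temperature.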
ClpP mod: qHTS Assay for Activators of ClpP; ATP-dependent Clp protease proteolytic subunit (Bacillus subtilis (strain 168)), P80244; purified B. subtilis ClpP, FRET peptide cleavage, 20 min; Potency, µM (highest dose often 57.5 µM), for inactives: at the top dose activity change, negative = active; hit rate 1.9% among 340,000; active = well fitted falling curve with a large enough effect; inconclusive = small, poorly fitted or top-dose-only effect; inactive = no such curve, though single readings can be large or run the other way; also: potency is read from the fitted curve at half-maximal effect; the source files actives as falling curves though it sought activators and does not explain the sign; nearly all actives have a fitted effect of over 65% in size; many hits overshoot -100%
Target sequence (P80244 whole entry, looked up): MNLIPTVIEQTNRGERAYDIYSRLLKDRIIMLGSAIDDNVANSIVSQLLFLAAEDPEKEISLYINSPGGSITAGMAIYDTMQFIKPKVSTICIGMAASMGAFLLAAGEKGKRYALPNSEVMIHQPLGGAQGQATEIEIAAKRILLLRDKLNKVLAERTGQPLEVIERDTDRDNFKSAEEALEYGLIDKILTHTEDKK
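ClpP 10 microg/mL final, pH 8 Tris/KCl buffer with BSA, glycerol, Tween-20; compound pinned in; FRET-FV substrate; RT 20 min; Ex320/Em430; ΔFRET vs ADEP 5.8 microM, DMSO, no enzyme.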
Menin-MLL FL inh: inhibitors of human menin-MLL interaction, wild-type MLL peptide; 290,000 tested, under 10 active; Fluorescence polarization, fluorescein-MLL peptide displacement from menin; FP activity change, % at 61.4 µM; inconclusive = falling polarisation curve, or a change in total fluorescence; inactive = total fluorescence flat and polarisation flat or rising; no compound was filed as active; the % refers to the polarisation; negative = inhibition;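 also: % of control where 0% means no effect; inhibitors lower the polarisation; unlabelled MLL peptide was the positive control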
gsp ag: gsp mutant agonism; gsp mutant cells, cAMP HTRF, 30 min; control for the full effect not named in the record; Potency, µM (series often up to 76.9 µM), without a hit: at the top dose activation (cAMP increase), most hits filed as activators; hit rate 0.13% among 340,000; AID 624287; active = well fitted activation curve with a large enough effect; inconclusive = small, poorly fitted or top-dose-only effect, or another doubt; inactive = no such curve, though single readings can be large or run the other way; cell line not stated here;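 also: phosphodiesterase inhibitor Ro 20-1724 added with compounds to block cAMP breakdown; potency is read from the fitted curve at half-maximal effect; nearly all actives have a fitted effect of over 60% in size; about a fifth of the inactives were tested at one dose only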
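Cells stably selected in G418 were plated at 2000/well, grown 16-24 hr, then given compounds in DMSO with the PDE inhibitor […] (300 uM solution added) for 30 min at 37C; cAMP was read by HTRF.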
gsp antag: gsp mutant antagonism | gsp-mutant cells, cAMP HTRF, 30 min; control for the full effect not named in the record | Potency, µM (series often up to 76.9 µM), for the others: at the highest dose activity change, negative = inhibition, hits mostly inhibitors | hit rate 0.4% among 340,000 | AID 624288; active = falling curve of any shape with a large fitted effect; inconclusive = falling curve, mostly with a smaller effect; inactive = flat or rising curve; cell line not stated here;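 also: intracellular cAMP measured with PDE inhibitor Ro 20-1724 present during compound exposure; potency is read from the fitted curve at half-maximal effect; % is scaled to controls: 0 for no effect and ±100 for the full control effect; nearly all actives have a fitted effect of over 65% in size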
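Measurement of cellular cAMP by homogeneous time-resolved fluorescence following a 30 min compound exposure at 37C. The PDE inhibitor […] was present throughout; the assay buffer was DPBS with 0.05% BSA and 0.005% Tween 20.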
PINK1 expr mod: changes PINK1 expression | PINK1 immunofluorescence, high-content cytometry, 24 h | Potency, µM (series often up to 76.6 µM), for the others: at the top dose activation (PINK1 increase), most hits filed as activators | hit rate 0.2% among 410,000 | AID 624263; active = well fitted activation curve with a large enough effect; inconclusive = small, poorly fitted or top-dose-only effect; inactive = flat fitted curve, though single readings scatter; cell line not stated here;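 also: potency is read from the fitted curve at half-maximal effect; % of control where 0% means no effect; nearly all actives have a fitted effect of over 65% in size; a mitochondrial uncoupler was the plate control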
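Fluorescence from anti-PINK1 antibody, together with nuclear and cell stains, was scanned on a laser-scanning cytometer. Before staining, stable-line cells were incubated 24 hours with compounds at 5 concentrations; primary antibody 12 h at 10 degrees C.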
* = called active by the depositor; ? = inconclusive; · = no result given; & = joins results of further samples; [ ] = another dose, or the depositor's remark.

SMILES | Sfp PPTase inh | D2 agonist | ClpP mod | Menin-MLL FL inh | gsp ag | gsp antag | PINK1 expr mod
COC(=O)C1=C(C(=O)OC)[C@@H]2N(Cc3ccccc3)c3ccccc3[C@@]23C[C@@H](C(=O)OC)N(C(C)=O)C3=N1 | 16%&3% | 2.8 | -0.6% | -0.3[11.7 µM] | · | -11% | 1.2%
CC(C(=O)N1CCc2ccccc21)N1CCN(Cc2ccccc2)CC1 (configuration not stated) | 8% | -6.4 | -2.3% | -5.3 | -1% | 9% | 0.2%
CC(C)C[C@@H]1NC(=O)[C@H](Cc2ccccc2)N(C)C(=O)[C@H](C)NC(=O)c2ccccc2NC(=O)[C@H](Cc2ccc(O)cc2)N(C)C1=O | 18% | 4.0 | -16% | 2.9 | · | -30% | 0.8%
O=c1nc(NO)ccn1C1CCCO1 (configuration not stated) | · | -3.2 | -0.3% | · | ? | 11% | -0.8%
Cc1ccc(NC(=O)Nc2c(C)[nH]c(=O)[nH]c2=O)cc1Cl | 8% | -1.3 | · | -2.9 | -13% | 8% | 8.6%
COc1ccc(S(=O)(=O)N2CCN(c3ccc(F)cc3)CC2)cc1C(=O)N1CCOCC1 | 10% | -3.1 | · | -1.2 | 7%[15.4 µM] | · | 4.6%
Cc1ccc(NC(=O)c2noc3c2CCC3)cc1C | 7% | 11 | · | 6.7 | 19%[15.4 µM] | -4% | 18%
CC(O)CNc1nc2ccccc2n1-c1ncnc2sc3c(c12)CCC3 (configuration not stated) | ? | -3.5 | 1.3% | -2.2 | -3% | 8% | -1.4%
CC(=O)Nc1ccc(C(=O)N/C(=C\c2ccccc2)C(=O)Nc2cccc(C(=O)O)c2)cc1 | 11% | -2.6 | · | -1.0 | 9%[15.4 µM] | 9% | 4.0%
CCN(C(=O)COC(=O)c1ccccc1Oc1ccccc1)c1c(N)n(Cc2ccccc2)c(=O)[nH]c1=O | · | 3.0 | -2.0% | · | -13% | 8% | 1.9%
COc1ccc(S(=O)(=O)N2CCCCC2)cc1NC(=O)CCCOc1ccc(C)cc1 | · | 1.8 | 0.3% | · | -3% | -12% | 2.5%
CCOc1ccc(S(=O)(=O)N(CC(=O)Nc2cc(C)on2)Cc2ccccc2Cl)cc1 | 8% | -2.4 | 0.8% | 2.8 | -7% | -6% | ·
Cc1ccc(Cn2c(SCC(=O)N(C)C3CCS(=O)(=O)C3)nc3ccccc3c2=O)cc1 (configuration not stated) | · | -0.8 | -1.0% | · | 14% | -7% | 2.1%
NC(=O)c1ccccc1NC(=O)CC12CC3CC(CC(Br)(C3)C1)C2 | 8% | -0.9 | · | -0.4 | 16% | 6% | -0.1%
OCC1(CCc2ccccc2)CCN(Cc2c(F)ccc(F)c2F)CC1 | 17% | 0.3 | 2.9% | 1.1 | -9% | -7% | -0.1%
C[C@@H]1CN([C@H](C)CO)C(=O)CCCn2nncc2CO[C@H]1CN(C)C(=O)c1cc(-c2ccccc2)on1 | · | -6.1 | -0.6% | · | -2% | · | 2.5%
COc1cc(OC)c(C(=O)OCC(=O)N2CCN(S(=O)(=O)c3ccc(C)cc3C)CC2)cc1OC | · | 1.0 | -7.2% | · | -27% | -13% | -0.2%
NS(=O)(=O)c1ccc(CCNC(=O)COC(=O)C2COc3ccccc3O2)cc1 (configuration not stated) | · | 1.9 | 0.5% | · | -20% | 4% | 1.9%
COc1ccccc1N1CCN(C(=O)c2ccc(N3CCCC3=O)cc2)CC1 | 6% | -2.1 | -0.7% | 2.8 | -47%[inhibitor] | 4% | -0.4%
Cc1ccc(C(=O)Nc2cc(-c3ccn[nH]3)c(C)n(N)c2=O)cc1 | 10% | -3.3 | · | 1.1 | -3%[15.4 µM] | · | 0.0%
O=C(Cc1csc(Nc2nc(=S)[nH]c3ccccc23)n1)N1CCN(c2cccc(C(F)(F)F)c2)CC1 | 28% | -6.3 | · | 8.6 | 6%[15.4 µM] | 2% | 5.2%
O=C1CSC(=Nc2ccc(Cl)cc2)N1 | 23% | 0.4 | 2.2% | 1.7 | -4% | 0% | -0.6%
CCC(C(=O)NCCCN1CCN(CCCNC(=O)C(CC)c2ccccc2)CC1)c1ccccc1 (configuration not stated) | 4% | -5.3 | -0.2% | 0.7 | 5% | 3% | -0.7%
Cc1ccsc1/C=N/NC(=O)c1nnn(-c2nonc2N)c1CSc1ccccc1 | 15% | 2.4 | ? | 0.1 | -28% | -3% | 10%
CSc1nc(N)cc(=O)[nH]1 | 12% | -5.2 | 1.8% | -0.5 | -3% | 8% | 1.1%

Reprinted at random: 4 records from the list
SMILES | Sfp PPTase inh | D2 agonist | ClpP mod | Menin-MLL FL inh | gsp ag | gsp antag | PINK1 expr mod
CCOc1ccc(S(=O)(=O)N(CC(=O)Nc2cc(C)on2)Cc2ccccc2Cl)cc1 | 8% | -2.4 | 0.8% | 2.8 | -7% | -6% | ·
O=c1nc(NO)ccn1C1CCCO1 (configuration not stated) | · | -3.2 | -0.3% | · | ? | 11% | -0.8%
NC(=O)c1ccccc1NC(=O)CC12CC3CC(CC(Br)(C3)C1)C2 | 8% | -0.9 | · | -0.4 | 16% | 6% | -0.1%
Cc1ccc(C(=O)Nc2cc(-c3ccn[nH]3)c(C)n(N)c2=O)cc1 | 10% | -3.3 | · | 1.1 | -3%[15.4 µM] | · | 0.0%

(more compounds)
SMILES | Sfp PPTase inh | D2 agonist | ClpP mod | Menin-MLL FL inh | gsp ag | gsp antag | PINK1 expr mod
O=C(NCCc1c[nH]c2ccccc12)/C(=C\c1ccco1)NC(=O)c1ccco1 | 1% | -2.7 | 0.2% | 6.1 | 19% | 8% | 0.6%
CCOC(=O)N1CCC(NS(=O)(=O)c2cc3c(cc2C)NC(=O)CO3)CC1 | 18% | -0.4 | -1.2% | 1.5 | 12% | 6% | -1.0%
N#Cc1c(N2CCCCC2)nc(N)c2c(N)nc3c(c12)CC(c1ccccc1)O3 (configuration not stated) | -9% | 1.2 | 28µM* | 6.9 | ? | 13% | -1.7%
COc1ccc(Cl)cc1NC(=O)COC(C)=O | 23% | -4.5 | 1.4% | 0.2 | ? | 4% | 1.7%
Cn1c(CO)cnc1SCc1ccc(Cl)cc1 | 12% | 1.8 | 0.3% | 2.3 | -24% | -12% | -2.2%
O=C(NC(=S)NNC(=O)c1ccco1)c1ccccc1 | 6% | -7.1 | -0.3% | · | 11% | -1% | 1.0%
CN(C)c1cccc(CNC(=O)c2csc([C@@H]3O[C@H](CO)[C@@H](O)[C@H]3O)n2)c1 | · | -6.1 | -0.1% | · | · | · | 1.3%
CCn1c(-c2cccc(Br)c2)n[nH]c1=S | -16% | -1.7 | -6.1% | -6.3 | 12% | 0% | 0.0%
COc1ccc(NC(=O)CN(Cc2ccccc2)S(C)(=O)=O)cc1 | 4% | 0.4 | -1.6% | 3.5 | 1% | 8% | -3.2%[38.3 µM]
COc1cc(C)cc(C(=O)O)c1C1=C(O)c2cccc(O)c2C(=O)C1=O | -6% | 7.1 | -1.4% | -8.4 | · | -4% | 0.1%
CC(C)C1C(=O)N(Cc2cn(Cc3ccco3)nn2)CCS(=O)(=O)N1Cc1ccc(-c2ccc(F)cc2)cc1 (configuration not stated) | · | 1.7 | 0.1% | · | ? | · | 0.4%
CCOc1ccccc1NC(=O)c1ccc(OCC)c([N+](=O)[O-])c1 | 9% | -2.4 | -1.0% | 2.3 | 0% | 3% | 8.5%
N#CC1=C(N)Oc2c(ccc3ccccc23)C1c1ccsc1 (configuration not stated) | 56µM* | 1.1 | -0.6% | 1.0 | 10%[15.4 µM] | 6% | 0.3%
O=C(OCc1nnc(-c2ccc([N+](=O)[O-])cc2)o1)C1CCN(C(=O)c2ccc(F)cc2)CC1 | · | 11 | -1.1% | · | 34% | -19% | -1.9%
CCOC(=O)c1c(C)nc(C)c(C(=O)OCC)c1-c1cccnc1 | 12% | -7.3 | 0.3% | 6.3 | ? | -3% | 0.6%
CNc1cccc(-c2ccc(C(=O)N3CCOCC3)cc2)n1 | · | 4.7 | ? | · | · | · | 1.8%
CC(=O)c1cc2c(cc1NC(=O)Cn1nc(-c3ccc(C)cc3)ccc1=O)OCO2 | 5% | -1.7 | 1.1% | · | 1%[15.4 µM] | 9% | 3.1%
COc1ccc(F)cc1S(=O)(=O)NC1CCCCCC1 | -5% | -3.4 | -1.8% | -0.4 | -14% | ? | -1.4%
Cc1ccccc1-c1cc(C(=O)NCc2cccs2)nn1CC1CC(c2cccc([N+](=O)[O-])c2)=NO1 (configuration not stated) | · | -0.3 | -1.2% | · | 22% | -14% | -0.1%
CCC(C)NC(=S)Nc1ccccc1OC (configuration not stated) | 6% | 3.9 | -2.7% | 2.2 | -2% | -4% | 2.8%
N#C/C(=C\c1ccc(C(=O)O)cc1)c1ccccn1 | 17% | -1.1 | · | -1.9 | -1%[15.4 µM] | -44% | -0.7%
COc1cc(/C=C(\C#N)C(=O)Nc2cccc(C(=O)O)c2)ccc1OCc1ccc(F)cc1 | 4% | 4.8 | · | 4.3 | ? | -36% | 0.4%
Nc1nnnn1/N=C/c1cccs1 | 16% | -0.9 | -0.9% | 2.2 | 15% | 11% | 1.2%
COc1ccc(-c2nc3cnc(N4CCOCC4)nc3n(C)c2=O)cc1 | 7% | · | · | -2.7 | · | · | 3.0%
CCN1CCN(c2ccc(S(=O)(=O)N3CCOCC3)cc2NC(=O)C(C)Oc2cccc(Cl)c2)CC1 (configuration not stated) | · | -1.9 | · | · | -2%[15.4 µM] | -2% | 0.0%
COc1cc(CNCCc2ccc(S(N)(=O)=O)cc2)ccc1OCC(=O)N1CCCCC1 | 10% | -5.6 | -5.4% | -0.8 | 5%[15.4 µM] | 10% | -1.5%
CCc1cc(C(=O)Nc2ccc(OC)nc2)sc1C | · | 0.3 | -0.6% | · | 0% | -4% | 2.8%
COc1cccc(-c2cncnc2NCCc2cnc[nH]2)c1 | -4% | · | · | -4.4 | · | · | -0.4%
COc1cccc(/C=C/C(=O)OCC(=O)Nc2cccc(S(=O)(=O)N(C)C)c2)c1 | 19% | -3.9 | · | 2.6 | 7% | -2% | -0.5%

Screening data: PubChem BioAssay, National Center for Advancing Translational Sciences (NCATS)
